GIRK2 activ = activators of human GIRK2 potassium channels. G protein-activated inward rectifier potassium channel 2 (Homo sapiens), P48051. HEK293-GIRK2 thallium flux, Thallos fluorescence. calls only for hits at 25 µM. 63,000 tested, 0.05% active. AID 1259325, 2017;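 active = among the strongest 0.2% of first-round signals and kept after retests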;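 also: first round at about 10 µM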
Target sequence (P48051 whole entry, looked up): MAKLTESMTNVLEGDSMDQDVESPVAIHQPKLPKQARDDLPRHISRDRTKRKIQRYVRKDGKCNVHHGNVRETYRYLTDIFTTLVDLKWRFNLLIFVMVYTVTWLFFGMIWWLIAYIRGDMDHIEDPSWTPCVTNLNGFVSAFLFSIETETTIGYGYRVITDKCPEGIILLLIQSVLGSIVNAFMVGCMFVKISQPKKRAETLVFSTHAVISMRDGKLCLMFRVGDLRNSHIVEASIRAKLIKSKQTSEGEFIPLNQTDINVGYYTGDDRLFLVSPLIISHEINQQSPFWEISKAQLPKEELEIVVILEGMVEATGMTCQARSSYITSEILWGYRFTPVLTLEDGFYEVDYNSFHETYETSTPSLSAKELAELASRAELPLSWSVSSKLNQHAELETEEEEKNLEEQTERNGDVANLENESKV
Calls only. These rows are one share of the data; count on the stated rates, not on these rows.

What do the screens show for `COc1ccc(CC(C)(O)CNC(=O)Nc2cccs2)cc1` (centres undefined)?
GIRK2 activ: inactive

How did CCOc1ccc(NC(=O)Cn2c(=O)nc(-c3ccccc3)c3ccccc32)cc1 do in these assays?
GIRK2 activ: inactive

Results for Cc1cc(CCNC(=O)Nc2ccc(Cl)c(Cl)c2)on1 ?
GIRK2 activ: inactive

What do the screens show for `Cc1cc(-c2nnc(NC(=O)c3ccc4c(c3)OCCO4)o2)nn1C`?
GIRK2 activ: inactive

How did O=C(NCc1cccs1)Nc1ccc2c(c1)C(=O)NCC2 do in these assays?
GIRK2 activ: inactive

What do the screens show for `O=c1oc2ccc(Cl)cc2cc1S(=O)(=O)N1CCCC1`?
GIRK2 activ: inactive

How did COc1ccccc1CNC(=O)CC1CCCCN1S(=O)(=O)c1ccccc1 (centres undefined) do in these assays?
GIRK2 activ: inactive

Results for COc1ccc(-n2ccnc(NCc3ccc(OC)c(OC)c3)c2=O)cc1 ?
GIRK2 activ: inactive

What do the screens show for `COc1ccc(C2=NN(C(C)=O)C(c3cc(OC)c(OC)c(OC)c3)C2)cc1OC` (centres undefined)?
GIRK2 activ: inactive

Results for Cc1ccc(OCC(=O)NCC#CCN(C(C)C)C(C)C)cc1 ?
GIRK2 activ: inactive

How did COc1ccc(CNC(=O)c2csc(Nc3cccc(C)n3)n2)cc1 do in these assays?
GIRK2 activ: inactive

What do the screens show for `COC(=O)c1sc2cccc(F)c2c1S(=O)(=O)NCc1ccccc1Cl`?
GIRK2 activ: inactive

Results for CC1CN(c2cccc(O)c2)c2nc3c(c(=O)[nH]c(=O)n3C)n2C1 (centres undefined) ?
GIRK2 activ: inactive

What do the screens show for `O=C(Nc1ccc(CC(=O)N2CCC(O)CC2)cc1)NC1CCCCCC1`?
GIRK2 activ: inactive

What do the screens show for `CC(=O)Nc1sc2c(c1-c1nc3ccccc3s1)CCN(Cc1ccccc1)C2`?
GIRK2 activ: inactive

Results for NC(=O)c1ccc(NC(=O)c2cc(OCc3ccccc3)no2)cc1 ?
GIRK2 activ: inactive

How did Cc1c(O)ccc2c(=O)c(-c3ccc(F)cc3)c(C(F)(F)F)oc12 do in these assays?
GIRK2 activ: inactive

How did Cn1nc(C(=O)N2CCCSCC2CN2CCOCC2)ccc1=O (centres undefined) do in these assays?
GIRK2 activ: inactive

Results for Cc1noc(C)c1S(=O)(=O)N1CCN(c2nc3c(C(F)(F)F)cccc3s2)CC1 ?
GIRK2 activ: inactive

Results for COc1ccc(NC(=O)N2CCc3c(c(=O)c4cc(C)cc(C)c4n3C)C2)cc1OC ?
GIRK2 activ: inactive

11 structures from above, arranged by length of the SMILES, highest first:
Results for COc1ccc(NC(=O)N2CCc3c(c(=O)c4cc(C)cc(C)c4n3C)C2)cc1OC ?
GIRK2 activ: inactive

What do the screens show for `COc1ccc(C2=NN(C(C)=O)C(c3cc(OC)c(OC)c(OC)c3)C2)cc1OC` (centres undefined)?
GIRK2 activ: inactive

Results for CC1CN(c2cccc(O)c2)c2nc3c(c(=O)[nH]c(=O)n3C)n2C1 (centres undefined) ?
GIRK2 activ: inactive

How did Cc1c(O)ccc2c(=O)c(-c3ccc(F)cc3)c(C(F)(F)F)oc12 do in these assays?
GIRK2 activ: inactive

What do the screens show for `COC(=O)c1sc2cccc(F)c2c1S(=O)(=O)NCc1ccccc1Cl`?
GIRK2 activ: inactive

What do the screens show for `Cc1cc(-c2nnc(NC(=O)c3ccc4c(c3)OCCO4)o2)nn1C`?
GIRK2 activ: inactive

Results for NC(=O)c1ccc(NC(=O)c2cc(OCc3ccccc3)no2)cc1 ?
GIRK2 activ: inactive

How did COc1ccc(CNC(=O)c2csc(Nc3cccc(C)n3)n2)cc1 do in these assays?
GIRK2 activ: inactive

Results for Cc1ccc(OCC(=O)NCC#CCN(C(C)C)C(C)C)cc1 ?
GIRK2 activ: inactive

How did Cn1nc(C(=O)N2CCCSCC2CN2CCOCC2)ccc1=O (centres undefined) do in these assays?
GIRK2 activ: inactive

How did O=C(NCc1cccs1)Nc1ccc2c(c1)C(=O)NCC2 do in these assays?
GIRK2 activ: inactive

New compounds follow:
What do the screens show for `COc1cc(-c2c(NC(=O)CC(C)C)oc3c(C)cccc3c2=O)cc(OC)c1OC`?
GIRK2 activ: inactive

How did Cc1ccc(=O)n(C(C)C(=O)N2CCC(C)CC2)n1 (centres undefined) do in these assays?
GIRK2 activ: inactive

What do the screens show for `O=C(CSc1nc2ccccc2o1)c1ccc(-c2ccc([N+](=O)[O-])cc2)o1`?
GIRK2 activ: inactive

What do the screens show for `O=S(=O)(NCCC(O)c1ccccc1)c1ccccc1` (centres undefined)?
GIRK2 activ: inactive

What do the screens show for `O=C(CN1CCN(c2ccc3c(c2)OCO3)C1=O)Nc1nc2ccccc2s1`?
GIRK2 activ: inactive

How did Cc1cn2c(nc3c2c(=O)n(Cc2ccccc2F)c(=O)n3C)[nH]1 do in these assays?
GIRK2 activ: inactive

What do the screens show for `O=C(NCC1(c2cccs2)CCOCC1)c1cc2ccccc2oc1=O`?
GIRK2 activ: inactive

What do the screens show for `CS(=O)(=O)N1CCN=C1SCc1cccc(F)c1`?
GIRK2 activ: inactive

How did C=CCn1c(=O)[nH]c2cc(C(=O)NCCc3ccc(Cl)cc3)ccc2c1=O do in these assays?
GIRK2 activ: inactive

What do the screens show for `Cc1nnc(NC(=O)C2OC3OC(C)(C)OC3C3OC(C)(C)OC23)s1` (centres undefined)?
GIRK2 activ: inactive

What do the screens show for `CN(C)S(=O)(=O)c1ccc(C(=O)N2CCCC2)o1`?
GIRK2 activ: inactive

Results for O=C(NCc1cccs1)C(=O)NCC1(CO)CC1 ?
GIRK2 activ: inactive

How did CCCCCn1c(=S)[nH]c2cc(C(=O)Nc3ccc(OC)c(Cl)c3)ccc2c1=O do in these assays?
GIRK2 activ: inactive

Results for O=C(c1ccccc1F)N1CCC(CSC2=NCCS2)CC1 ?
GIRK2 activ: inactive

Results for O=C1CC(c2nc3ccccc3n2Cc2ccccc2Cl)CN1Cc1ccccc1 (centres undefined) ?
GIRK2 activ: inactive

How did COc1ccc(OCC(O)Cn2c(NCC(C)C)nc3c2c(=O)[nH]c(=O)n3C)cc1 (centres undefined) do in these assays?
GIRK2 activ: inactive

How did Cn1cc(-c2nc(-c3ccccc3Br)no2)c(=O)c2ccccc21 do in these assays?
GIRK2 activ: inactive

Results for O=C(Nc1ccc(F)c(C(F)(F)F)c1)C1CCN(c2ccc(-c3ccco3)nn2)CC1 ?
GIRK2 activ: inactive

What do the screens show for `O=C(c1cc2ccccc2oc1=O)N1CCN(S(=O)(=O)C2CC2)CC1`?
GIRK2 activ: inactive

How did NC(=O)c1nnn(-c2ccc(NC(=O)c3ccc(F)c(F)c3)cc2)n1 do in these assays?
GIRK2 activ: inactive

What do the screens show for `O=C(Nc1nc2c(s1)CN(C(=O)c1ccc3nsnc3c1)CC2)C1CC1`?
GIRK2 activ: inactive

How did O=C(NCC1CCN(S(=O)(=O)C2CC2)CC1)C1(c2ccc(F)cc2)CC1 do in these assays?
GIRK2 activ: inactive

What do the screens show for `CCOC(=O)Cc1csc(NC(=O)c2ccc(=O)n(C)n2)n1`?
GIRK2 activ: inactive

What do the screens show for `O=C(CSCc1ccccc1)Nc1ccc(CC(=O)NC2CC2)cc1`?
GIRK2 activ: inactive

How did Cc1ccc(C(=O)C(C)OC(=O)c2cccnc2)cc1 (centres undefined) do in these assays?
GIRK2 activ: inactive

How did Cc1nc(SCc2nc(-c3ccc(OC(C)C)cc3)no2)[nH]c(=O)c1C do in these assays?
GIRK2 activ: inactive

Results for COc1ccc(CCC(=O)NCCC(O)c2cccc3ccccc23)cc1 (centres undefined) ?
GIRK2 activ: inactive

What do the screens show for `COc1cccc(C(=O)Nc2c3c(nn2CC(=O)NCc2ccco2)CSC3)c1OC`?
GIRK2 activ: inactive

How did CC(NC(=O)CCc1csc(NC(=O)Nc2ccccc2)n1)c1ccccc1 (centres undefined) do in these assays?
GIRK2 activ: inactive

Results for COC(=O)c1ccc(NC(=O)CCCn2cccc2)cc1 ?
GIRK2 activ: inactive

Results for COc1ccc(N2CCN(S(=O)(=O)c3c(Cl)cccc3Cl)CC2)cc1 ?
GIRK2 activ: inactive

How did CN(C)CCN1C(=O)C(=O)C(=C(O)c2ccc3c(c2)OCCO3)C1c1ccncc1 (centres undefined) do in these assays?
GIRK2 activ: inactive

Results for COc1ccc(C(C)NC(=O)c2cn(CC(O)c3ccccc3)nn2)cc1OC (centres undefined) ?
GIRK2 activ: inactive

Results for COCCN(Cc1ccsc1)C(=O)c1c(F)cccc1Cl ?
GIRK2 activ: inactive

Results for O=C(NCC1CCS(=O)(=O)C1)c1cc(-c2ccc(F)cc2)n[nH]1 (centres undefined) ?
GIRK2 activ: inactive

What do the screens show for `COC(=O)c1ccc2c(=O)n(CCCC(=O)N3CCN(Cc4ccccc4)CC3)c(=S)[nH]c2c1`?
GIRK2 activ: inactive

How did Cc1cc(C)n(-c2ncnc3c2cnn3-c2ccc(F)c(F)c2)n1 do in these assays?
GIRK2 activ: inactive

Results for O=C(CCCCCn1cnc2ccccc2c1=O)N1CCN(c2cccc(C(F)(F)F)c2)CC1 ?
GIRK2 activ: inactive

How did COc1ccc2cc(CNc3ccc(C)cc3)c(=O)n(CC(=O)Nc3ccc(C(C)=O)cc3)c2c1 do in these assays?
GIRK2 activ: inactive

Results for COCCc1nnc(NC(=O)c2cc3ccccc3o2)o1 ?
GIRK2 activ: inactive

What do the screens show for `C/C=C/c1occ(C(=O)c2c(OC)cc(OC)cc2C(=O)OC)c(=O)c1OC`?
GIRK2 activ: inactive

How did COc1ccc(C(=O)Nc2sc3c(c2-c2nc4ccccc4s2)CCN(C(C)C)C3)cc1OC do in these assays?
GIRK2 activ: inactive

What do the screens show for `O=C(Cc1ccc(NC(=O)c2cc3ccccc3oc2=O)cc1)NC1CC1`?
GIRK2 activ: inactive

Results for Cc1ccc(Oc2nccn3c(=O)n(CC(=O)Nc4ccc(Br)cc4F)nc23)cc1 ?
GIRK2 activ: inactive

What do the screens show for `O=S(=O)(Cc1ccccc1)N1CCC2(CCc3ccccc3O2)CC1`?
GIRK2 activ: inactive

What do the screens show for `CCOC(=O)C1=C(CCl)NC(=O)NC1c1ccccc1Cl` (centres undefined)?
GIRK2 activ: inactive

Results for CCSc1ccccc1C(=O)N1CCC(Oc2ncccc2Cl)CC1 ?
GIRK2 activ: inactive

What do the screens show for `COc1cc(C(=O)Nc2ccc(-c3ccc(=O)n(C)n3)cc2)cc(OC)c1OC`?
GIRK2 activ: inactive

What do the screens show for `Cc1cn2c3c(=O)n(Cc4ccccc4Cl)c(=O)n(C)c3nc2n1CCN1CCOCC1`?
GIRK2 activ: inactive

How did COc1ccc(C(=O)Nc2cc(C)nn2-c2nc3ccccc3s2)cc1 do in these assays?
GIRK2 activ: inactive

Results for Cc1ccc(-c2csc(-n3nc(C)cc3NC(=O)c3ccc(S(=O)(=O)N(C)C)cc3)n2)cc1 ?
GIRK2 activ: inactive

What do the screens show for `Cc1cccc(/C=C/C(=O)c2ccsc2)c1`?
GIRK2 activ: inactive

What do the screens show for `CCOc1ccc(/C=C/C(=O)Nc2c(C)cccc2CC)cc1OC`?
GIRK2 activ: inactive

Results for NC(=O)c1nnn(-c2ccccc2Cl)c1-c1ccccn1 ?
GIRK2 activ: inactive

Results for CC(C)=CCC/C(C)=C/CCC(C)CCSCC(=O)O (centres undefined) ?
GIRK2 activ: inactive

Results for O=C1COc2ccc(NC(=O)c3c4c(nn3C3CCS(=O)(=O)C3)CCC4)cc2N1 (centres undefined) ?
GIRK2 activ: inactive

Results for CSc1cccc(NC(=O)c2ccc(-n3ccnc3C)nn2)c1 ?
GIRK2 activ: inactive

Results for Cc1ccc(-n2cc(C(=O)N3CCC(NC(=O)c4ccc(N(C)C)cc4)CC3)nn2)cc1C ?
GIRK2 activ: inactive

What do the screens show for `COc1cccc(Oc2coc3cc(OCC#N)ccc3c2=O)c1`?
GIRK2 activ: inactive

Results for NC(=O)CSc1ncc(-c2ccc(Br)cc2)n1-c1ccc(F)cc1 ?
GIRK2 activ: inactive

3 entries already listed, sorted by length of the SMILES, smallest number first:
Results for CC(C)=CCC/C(C)=C/CCC(C)CCSCC(=O)O (centres undefined) ?
GIRK2 activ: inactive

Results for NC(=O)c1nnn(-c2ccccc2Cl)c1-c1ccccn1 ?
GIRK2 activ: inactive

Results for Cc1ccc(-n2cc(C(=O)N3CCC(NC(=O)c4ccc(N(C)C)cc4)CC3)nn2)cc1C ?
GIRK2 activ: inactive

The listing continues.
Results for O=S(=O)(NCCNc1cc(-n2cccc2)ncn1)c1cccc(C(F)(F)F)c1 ?
GIRK2 activ: inactive

What do the screens show for `O=C(O)CCC1(c2ccccc2)NC(=O)N(CC(=O)Nc2ccc(F)cc2)C1=O` (centres undefined)?
GIRK2 activ: inactive

How did COC(=O)c1sccc1S(=O)(=O)NCc1cc(-c2cccs2)n(C)n1 do in these assays?
GIRK2 activ: inactive

What do the screens show for `COc1cc(NC(=O)NCC#CCN2CCCC2)cc(OC)c1OC`?
GIRK2 activ: inactive

How did Cn1ccnc1SCC1CCN(C(=O)C2(c3ccc(Cl)cc3)CCCC2)CC1 do in these assays?
GIRK2 activ: inactive

Results for CC(=O)Nc1cccc(NC(=O)C2CCCN(c3ccc(-c4ccccc4)nn3)C2)c1 (centres undefined) ?
GIRK2 activ: inactive

How did CCOc1ccc(CCNc2nccn(-c3ccc(Cl)cc3)c2=O)cc1OCC do in these assays?
GIRK2 activ: inactive

What do the screens show for `Cc1cn2c3c(=O)[nH]c(=O)n(C)c3nc2n1CCN1CCN(c2ccccc2)CC1`?
GIRK2 activ: inactive

How did O=C(c1c[nH]c2ccccc12)N1CCC(Cn2cccn2)CC1 do in these assays?
GIRK2 activ: inactive

How did COc1ccc(NC(=O)Cn2c(=O)cnc3cc(S(=O)(=O)N4CCCCC4)ccc32)c(OC)c1 do in these assays?
GIRK2 activ: inactive

How did CCN1CCCc2cc(CCNC(=O)c3ccc(OC)c(OC)c3)ccc21 do in these assays?
GIRK2 activ: inactive

Results for COCCN1CCC(CNC(=O)NCc2ccc(OC)cc2)CC1 ?
GIRK2 activ: inactive

Results for COc1cccc2sc(OC3CN(C(=O)C4CCN(S(C)(=O)=O)CC4)C3)nc12 ?
GIRK2 activ: inactive

Results for Cc1cc(C)nc(Nc2nc(C(=O)Nc3ccc(F)c(Cl)c3)cs2)n1 ?
GIRK2 activ: inactive

How did Cc1c(C(=O)NCCO)nnn1-c1ccc2noc(-c3ccc(Cl)cc3)c2c1 do in these assays?
GIRK2 activ: inactive
